Bioassay records deposited in PubChem BioAssay by Broad Institute.
PD-1 reversal – activators reversing PD-1 mediated T-cell inhibition; 29,000 tested, under 10 active; AID 2316; primary human CD4 T cells, PD-L1 beads, CellTiter-Glo 96 h; activation, % (no concentration beside the values);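 active = replicate mean of 50% or more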;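 also: 0% = median vehicle wells and 100% = positive control; 100 nL library stock added to about 50 µL; numbers are from one replicate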
MITF inh – MITF inhibition; TRPM1 promoter luciferase, luminescence, 24 h; inhibition, % (concentration not given with the values); 0.28% of 37,000 active; AID 2240;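 active = most replicates at 85% or more, or half of them and the mean; inconclusive = half reach 85% but not the mean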;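 also: human melanocyte line stably carrying TRPM1 promoter luciferase reporter; 0% = vehicle wells and 100% = a positive control; the first replicate is given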
Shh pathway inh – blocks Sonic Hedgehog signaling | Shh-LIGHT2 Gli-luciferase reporter, 30 h | inhibition, % (concentration not given with the values) | 2.1% of 22,000 active;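 active = replicate mean of 65% or more; inconclusive = mean lower but half the replicates past it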;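 also: pathway switched on by Shh-conditioned medium diluted 1 in 25 in low serum; 100 nL library stock added to about 40 µL; 0% = median of neutral wells and 100% = positive control level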
YB-1 expr inh – YB-1 expression inhibition. U2OS, qRT-PCR YB-1 vs CDIP delta delta Cp, 16 h; stronger effect = higher value; zero = DMSO, each unit about twofold. delta delta Cp (YB-1 minus CDIP) (test concentration not listed). 0.37% of 30,000 active;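 active = delta delta Cp rounded down to an integer at or above 3, about 3 SD of DMSO wells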;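 also: higher means less YB-1 transcript or more CDIP transcript relative to DMSO; stock transfer was 100 nL into about 100 µL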
An asterisk follows results filed as active. Only part of the results is shown; the hit share may differ from the screen's.

For Cc1cc(-c2ccc(N=Nc3cc(S(=O)(=O)O)c4ccccc4c3N)c(C)c2)ccc1N=Nc1cc(S(=O)(=O)O)c2ccccc2c1N the results were PD-1 reversal -9.9, MITF inh 15, Shh pathway inh 13 and YB-1 expr inh -0.2.
CC(=O)[C@H]1CC[C@H]2[C@@H]3CCC4=CC(=O)CC[C@]4(C)[C@H]3CC[C@]12C was read as MITF inh -2, Shh pathway inh 19 and YB-1 expr inh 0.34.
Screening C[C@H]1CN([C@@H](C)CO)C(=O)Cc2cc(NC(=O)Cc3cn(C)c4ccccc34)ccc2O[C@@H]1CN(C)Cc1ccc(C(F)(F)F)cc1 returned PD-1 reversal -2.3, MITF inh 37, Shh pathway inh -37 and YB-1 expr inh 0.094.
For CC1Cc2ccccc2N1C(=O)c1cccc(C(=O)N2c3ccccc3CC2C)n1 (stereo not drawn) the results were PD-1 reversal -0.3, MITF inh 22, Shh pathway inh 20 and YB-1 expr inh -0.49.
For C[C@@H]1CN([C@@H](C)CO)C(=O)c2cc(NC(=O)Nc3cccc4ccccc34)ccc2O[C@@H]1CN(C)Cc1ccncc1 the results were PD-1 reversal -1.0, MITF inh 2, Shh pathway inh 16 and YB-1 expr inh 0.26.
Screening COc1ccc(CN(C)C[C@@H]2Oc3c(NC(=O)c4ccc(-c5nccs5)cc4)cccc3C(=O)N([C@H](C)CO)C[C@@H]2C)cc1 returned PD-1 reversal -0.5, MITF inh 4, Shh pathway inh inconclusive and YB-1 expr inh 0.68.
CC(C)N(Cc1nc(-c2ccccc2Cl)no1)S(=O)(=O)c1ccc([N+](=O)[O-])cc1 was read as PD-1 reversal -0.2 and MITF inh 22.
`Cc1cc(CNC(=S)Nc2cccc([N+](=O)[O-])c2)nn1C` gave PD-1 reversal 0.2 and MITF inh 11.
`C[C@H]1CN([C@@H](C)CO)C(=O)c2cc(NC(=O)Nc3ccc(C(F)(F)F)cc3)ccc2O[C@H]1CN(C)C(=O)NC1CCCCC1` gave PD-1 reversal -2.5, MITF inh 36, Shh pathway inh -15 and YB-1 expr inh 0.51.
C[C@@H]1CN([C@H](C)CO)C(=O)c2cccc(NC(=O)Nc3ccccc3)c2O[C@H]1CN(C)CC1CCCCC1 was read as PD-1 reversal -3.2, MITF inh -1, Shh pathway inh -33 and YB-1 expr inh -0.23.
C[C@H](CO)N1C[C@H](C)[C@@H](CN(C)Cc2ccc3c(c2)OCO3)Oc2ccc(NS(=O)(=O)c3ccccc3)cc2C1=O was read as PD-1 reversal -1.5, MITF inh 0, Shh pathway inh 13 and YB-1 expr inh -0.42.
`C[C@@H]1CN([C@H](C)CO)C(=O)Cc2cc(NC(=O)CCN3CCOCC3)ccc2O[C@H]1CN(C)C` gave MITF inh 1, Shh pathway inh -10 and YB-1 expr inh -0.23.
`Cc1noc(C)c1NC(=O)N(C)C[C@@H]1Oc2ccc(NS(=O)(=O)c3ccccc3)cc2C(=O)N([C@@H](C)CO)C[C@H]1C` gave PD-1 reversal 0.4, MITF inh -2, Shh pathway inh 21 and YB-1 expr inh -0.15.
`C[C@H]1CN([C@@H](C)CO)C(=O)Cc2cc(NS(=O)(=O)c3ccccc3)ccc2O[C@@H]1CN(C)C(=O)NC1CCCCC1` gave PD-1 reversal 0.2, MITF inh -10, Shh pathway inh 1 and YB-1 expr inh 0.21.
`COc1ccc(CN(C)C[C@H]2Oc3ccc(NC(=O)Nc4ccc(OC)cc4)cc3C(=O)N([C@H](C)CO)C[C@H]2C)cc1` gave PD-1 reversal 0.7, MITF inh 0, Shh pathway inh -14 and YB-1 expr inh 0.53.
For C[C@H](CO)N1C[C@H](C)[C@@H](CN(C)Cc2ccc(C(=O)Nc3ccccc3N)cc2)Oc2ccc(NC(=O)Nc3ccc(F)cc3)cc2C1=O the results were PD-1 reversal -0.3, MITF inh 0 and YB-1 expr inh -0.66.
`C[C@H]1CN([C@@H](C)CO)C(=O)c2cccc(NC(=O)C3CCCCC3)c2O[C@@H]1CN(C)S(=O)(=O)c1cn(C)cn1` gave PD-1 reversal 0.5, MITF inh -6, Shh pathway inh -30 and YB-1 expr inh -0.56.
`CC(C)n1c(=S)[nH]c2cc(C(F)(F)F)ccc21` gave PD-1 reversal 1.0, MITF inh -1 and YB-1 expr inh -0.42.
Screening Cc1ccc(S(=O)(=O)NCC(=O)O)c(C)c1 returned PD-1 reversal 1.2 and MITF inh -1.
Cn1nnc(NC(=O)CSc2nnnn2-c2ccc(F)cc2)n1 was read as PD-1 reversal 2.6 and MITF inh -6.
`C[C@H]1CN([C@@H](C)CO)C(=O)c2cc(NS(=O)(=O)c3ccc(F)cc3)ccc2O[C@@H]1CN(C)C(=O)NC1CCCCC1` gave PD-1 reversal 3.8, MITF inh -1 and YB-1 expr inh -0.89.
For CCOC(=O)c1c(NC(=O)C2(C)Cc3ccccc3C(=O)O2)sc(C)c1C (stereo not drawn) the results were PD-1 reversal -4.0 and MITF inh -18.
C[C@H](CO)N1C[C@H](C)[C@H](CN(C)Cc2ccccc2)Oc2ccc(NS(C)(=O)=O)cc2CC1=O was read as MITF inh 5 and YB-1 expr inh -0.26.
CCn1c(SCC(=O)Nc2ccccc2C)nnc1-c1ccccc1O was read as PD-1 reversal 1.7 and MITF inh -2.
C[C@H](CO)N1C[C@H](C)[C@@H](CN(C)S(=O)(=O)c2ccc(Cl)cc2)Oc2c(NC(=O)C3CCCCC3)cccc2C1=O was read as PD-1 reversal 0.5, MITF inh -4, Shh pathway inh -20 and YB-1 expr inh 0.4.
`Cc1noc(C)c1NC(=O)Nc1ccc2c(c1)C(=O)N([C@@H](C)CO)C[C@H](C)[C@H](CN(C)C(=O)Nc1ccc3c(c1)OCO3)O2` gave PD-1 reversal 1.7, MITF inh -6, Shh pathway inh -29 and YB-1 expr inh -0.096.
`Cc1noc(C)c1NC(=O)Nc1ccc2c(c1)CC(=O)N([C@@H](C)CO)C[C@H](C)[C@@H](CN(C)S(=O)(=O)c1ccc(Cl)cc1)O2` gave PD-1 reversal 2.1, MITF inh -14, Shh pathway inh -6 and YB-1 expr inh 0.29.
c1ccc(-c2nnc(N3CCc4ccccc43)nc2-c2ccccc2)cc1 was read as PD-1 reversal 0.3, MITF inh 5, Shh pathway inh -18 and YB-1 expr inh -0.36.
Cc1ccc(S(=O)(=O)N(C)C[C@H]2Oc3ccc(N(C)C)cc3C(=O)N([C@H](C)CO)C[C@H]2C)cc1 was read as MITF inh 11, Shh pathway inh -7 and YB-1 expr inh 0.091.
Screening Cc1ccc(C(=O)c2ccc(C)c(C)c2)cc1C returned PD-1 reversal 2.5, MITF inh -86, Shh pathway inh -57 and YB-1 expr inh -0.11.
CC[C@H](NS(=O)(=O)c1ccc(C)cc1)C(=O)Oc1cc2oc(=O)cc(C)c2cc1Cl was read as PD-1 reversal 1.4 and MITF inh -26.
For CNC[C@H]1Oc2ccc(NC(=O)Nc3ccc(OC)cc3)cc2C(=O)N([C@@H](C)CO)C[C@@H]1C the results were PD-1 reversal 1.2, MITF inh 11, Shh pathway inh -27 and YB-1 expr inh 0.32.
C[C@H]1CN([C@@H](C)CO)C(=O)Cc2cc(N(C)C)ccc2O[C@@H]1CN(C)S(=O)(=O)c1cn(C)cn1 was read as PD-1 reversal 1.1, MITF inh -15, Shh pathway inh -8 and YB-1 expr inh 0.1.
Cc1cc(C)c(NC(=O)CN(c2cccc3ccccc23)S(C)(=O)=O)c(C)c1 was read as PD-1 reversal 1.5 and MITF inh 0.
CC(C)NC(=O)Nc1ccc2c(c1)C(=O)N([C@H](C)CO)C[C@H](C)[C@@H](CN(C)C(=O)Nc1ccccc1)OCCCC[C@@H](C)O2 was read as MITF inh 0, Shh pathway inh -14 and YB-1 expr inh 0.22.
For COc1ccc(CN(C)C[C@H]2Oc3ccc(NC(=O)c4ccncc4)cc3C(=O)N([C@H](C)CO)C[C@@H]2C)cc1 the results were PD-1 reversal 1.8, MITF inh 0, Shh pathway inh -20 and YB-1 expr inh 0.084.
For CCc1nc2ccccc2n1CCC(=O)O the results were PD-1 reversal 2.3 and MITF inh 3.
`C[C@@H]1CN([C@H](C)CO)C(=O)c2cccc(NC(=O)c3nc4ccccc4s3)c2O[C@@H]1CN(C)S(C)(=O)=O` gave MITF inh -5, Shh pathway inh 19 and YB-1 expr inh 0.12.
`C[C@H](CO)N1C[C@H](C)[C@@H](CN(C)CC2CCCCC2)Oc2c(NC(=O)C3CC3)cccc2C1=O` gave MITF inh 10, Shh pathway inh 20 and YB-1 expr inh -0.27.
`CC(C)NC(=O)Nc1cccc2c1O[C@@H](CN(C)S(=O)(=O)c1cn(C)cn1)[C@H](C)CN([C@H](C)CO)C2=O` gave PD-1 reversal 1.7, MITF inh -7, Shh pathway inh -36 and YB-1 expr inh 0.24.
For COc1ccc(C(=O)CC2(O)C(=O)Nc3ccc(Cl)cc32)cc1OC (stereo not drawn) the results were PD-1 reversal -1.4 and MITF inh 24.
Cc1cc(C)c2c(c1)CC(C)(C)c1[nH]c(-c3ccccc3)nc1-2 was read as PD-1 reversal -0.2, MITF inh 12, Shh pathway inh -39 and YB-1 expr inh -0.73.
For C[C@@H]1CN([C@H](C)CO)C(=O)Cc2cc(NC(=O)Nc3ccccc3)ccc2O[C@H]1CN(C)C the results were MITF inh -6, Shh pathway inh -6 and YB-1 expr inh -0.13.
For C[C@@H]1CN([C@@H](C)CO)C(=O)c2cc(NC(=O)Nc3cccc4ccccc34)ccc2O[C@H]1CN(C)S(=O)(=O)c1ccc(Cl)cc1 the results were PD-1 reversal -0.5, MITF inh 2 and YB-1 expr inh 0.054.
`COC(=O)c1cc(OC)cc(O)c1C(=O)c1c(O)cc(C)cc1O` gave PD-1 reversal 0.5, MITF inh 5, Shh pathway inh -9 and YB-1 expr inh -0.35.
`COc1ccc(NC(=O)Nc2cccc3c2O[C@@H](CN(C)Cc2ccc4c(c2)OCO4)[C@H](C)CN([C@H](C)CO)C3=O)cc1` gave PD-1 reversal -3.8, MITF inh 13, Shh pathway inh -3 and YB-1 expr inh 0.63.
For Cc1ccc(S(=O)(=O)Nc2ccc3c(c2)C(=O)N([C@H](C)CO)C[C@H](C)[C@H](CN(C)Cc2ccncc2)O3)cc1 the results were MITF inh 14 and YB-1 expr inh -0.1.
For Cc1cc([N+](=O)[O-])nn1CC(=O)Nc1cc(Cl)cc(Cl)c1 the results were PD-1 reversal -3.7 and MITF inh 28.
Screening C[C@@H]1CCCCO[C@@H](CN(C)C(=O)NC2CCCCC2)[C@@H](C)CN([C@H](C)CO)C(=O)c2cc(NC(=O)c3ccncc3)ccc2O1 returned PD-1 reversal -0.2, MITF inh 1 and YB-1 expr inh -0.3.
Cc1noc(C)c1NC(=O)Nc1ccc2c(c1)CC(=O)N([C@H](C)CO)C[C@@H](C)[C@H](CN(C)C(=O)Nc1c(C)noc1C)O2 was read as PD-1 reversal 1.1, MITF inh 2, Shh pathway inh -18 and YB-1 expr inh 0.58.
C[C@H]1CN([C@@H](C)CO)C(=O)c2cccc(N(C)C)c2O[C@H]1CN(C)Cc1ccc(C(=O)Nc2ccccc2N)cc1 was read as PD-1 reversal -0.9, MITF inh 12 and YB-1 expr inh -0.2.
For Cc1noc(C)c1S(=O)(=O)N(C)C[C@@H]1Oc2ccc(NS(=O)(=O)c3ccc(F)cc3)cc2C(=O)N([C@H](C)CO)C[C@@H]1C the results were PD-1 reversal -2.2, MITF inh -20, Shh pathway inh -17 and YB-1 expr inh -0.23.
CC1(C)CC[C@]2(C(=O)O[C@@H]3O[C@H](CO)[C@@H](O)[C@H](O)[C@H]3O)CC[C@]3(C)C(=CCC4[C@@]5(C)C[C@@H](O)[C@H](O)[C@@](C)(CO)C5CC[C@]43C)C2C1 (stereo partly drawn) was read as PD-1 reversal 0.8, MITF inh -9, Shh pathway inh 1 and YB-1 expr inh -0.062.
`C[C@@H]1CN([C@H](C)CO)C(=O)Cc2cc(NC(=O)C3CC3)ccc2O[C@H]1CN(C)CC1CC1` gave PD-1 reversal -0.1, MITF inh -15 and YB-1 expr inh 0.13.
Screening CCOc1ccc(Nc2nc(CSc3nc4ccccc4c(=O)n3-c3ccccc3)cs2)cc1 returned PD-1 reversal 0.9 and MITF inh -2.
